High-throughput results from PubChem BioAssay.
Beta apoptosis – beta cell apoptosis inhibition. INS-1E cytokine-induced death, ATP luminescence, 48 h; percent of positive-control rescue, neutral wells zero. protection from apoptosis, % (no concentration beside the values). 300,000 tested, 0.8% active;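 active = all replicates at 75% or more, or half of them and the mean; inconclusive = half reach 75% but not the mean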;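 note: 0% = cytokine-treated negative control wells and 100% = positive control rescue; higher means more ATP so stronger rescue from cytokine killing; wells of about 40 µL received 100 nL stock; the first replicate is given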
B2AR ag – agonists of human beta-2 adrenergic receptor inducing internalization. P07550. Am2.2-beta2AR cells, FAP receptor internalization, flow cytometry; reference of the scale not given here. response, % (concentration not given with the values). 340,000 tested, 0.43% active;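 active = response above a set limit, near 3 SD of response in nonfluorescent compounds, cut at about 42% in these data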;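 note: stock transfer was 100 nL into about 11 µL; a reference agonist was the positive control; negative values mostly stem from fluorescent compounds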
Target sequence (P07550 whole entry, looked up): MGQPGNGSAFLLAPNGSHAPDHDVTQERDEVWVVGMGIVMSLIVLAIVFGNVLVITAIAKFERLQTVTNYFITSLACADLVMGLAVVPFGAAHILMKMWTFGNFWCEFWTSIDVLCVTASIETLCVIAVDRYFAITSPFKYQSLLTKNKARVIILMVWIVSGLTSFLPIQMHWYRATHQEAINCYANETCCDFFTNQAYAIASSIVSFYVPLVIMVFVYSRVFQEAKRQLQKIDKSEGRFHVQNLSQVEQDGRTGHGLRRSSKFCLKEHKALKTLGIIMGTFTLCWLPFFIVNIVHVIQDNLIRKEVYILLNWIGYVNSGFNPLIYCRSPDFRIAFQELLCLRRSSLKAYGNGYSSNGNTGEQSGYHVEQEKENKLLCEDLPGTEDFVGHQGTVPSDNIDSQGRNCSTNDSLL
T cruzi repl – T. cruzi replication inhibition; T. cruzi beta-gal in NIH3T3, luminescence, 90 h; inhibition, % (concentration not given with the values); 300,000 tested, 1.4% active; AID 1885;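 active = mean inhibition across valid replicates above about 55%, limit read from the data; inconclusive = mean below that limit but half or more replicates reach it; inactive = mean below it, under half of replicates reach it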;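 note: signal also drops with host cell toxicity which is not excluded here; 0% = plate median of DMSO wells and 100% = zero luminescence signal; higher percent means less beta-gal luminescence so fewer parasites; stock transfer was 50 nL into about 50 µL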
ALR H2O2 inh – human ALR oxidase inhibition via reduced H2O2. purified ALR, DTT oxidation, H2O2 HRP-luminol luminescence. inhibition, % (test concentration not listed). 290,000 tested, 3.8% active. AID 485317;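 active = mean and each replicate at 75% or more; inconclusive = only one of the two met; inactive = neither met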;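 note: stock transfer was 7.5 nL into about 7.5 µL; 0% = neutral wells and 100% = wells with inactivated enzyme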
Target sequence (P55789 whole entry, looked up): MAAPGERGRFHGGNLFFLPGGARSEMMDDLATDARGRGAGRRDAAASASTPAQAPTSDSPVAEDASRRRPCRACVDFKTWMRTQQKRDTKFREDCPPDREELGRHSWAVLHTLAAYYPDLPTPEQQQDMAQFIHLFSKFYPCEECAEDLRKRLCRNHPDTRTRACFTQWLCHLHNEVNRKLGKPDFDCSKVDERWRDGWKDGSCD
A1 inh – inhibitors of the anti-apoptotic protein A1, read as caspase activation. caspase activation, % (no concentration beside the values). 330,000 tested, 0.066% active. MEF A1-2A-BIM cells, Caspase-Glo 3/7 luminescence, 3 h; percent of clofoctol response, vehicle zero;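 active = over half of replicate activation scores above 10%, or exactly half above 10 with the replicate mean above 10; inconclusive = replicate mean below 10 yet half the replicates above 10; inactive = over half of replicates below 10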;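 note: wells of about 30 µL received 50 nL stock; many hits fall short of the cut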
Calb FLC – affects C. albicans growth with fluconazole. C. albicans CaCi-2 (fluconazole-resistant clinical isolate) + fluconazole, Alamar Blue growth, 48 h. growth inhibition, % (no concentration beside the values). 300,000 tested, 0.57% active;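 active = most replicates above 75%; inconclusive = exactly half above 75%; inactive = most below 75%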;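 note: all wells also contain fluconazole at 8 µg/ml as a sub-toxic cotreatment; 0% = median of DMSO wells and 100% = median of geldanamycin control wells; wells of about 8 µL received 7.5 nL stock; the first replicate is given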
LANA-H2B inh – blocks KSHV LANA binding to histone H2A/H2B; cell-free LANA-H2A/H2B peptide, fluorescence polarization; 320,000 tested, 0.6% active; AID 2629; Q9QR71; inhibition, % (no concentration beside the values); in the data active = inhibition mostly above about 10%, no sharp cut-off; inactive = mostly below about 6.7%;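 note: stock transfer was 7.5 nL into about 10 µL; 0% = median of vehicle wells and 100% = median of positive control wells; one replicate is shown; the record names a cut of 25% in any replicate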
rRNA inh HTS – selective bacterial rRNA inhibition in E. coli | E. coli WT GFP vs humanized-ribosome RFP mutants, fluorescence, 24 h; hits give low values; DMSO median 0, no signal -100 | AID 720706 | 350,000 tested, 1.6% active | GFP signal change (wild-type ribosome), % (concentration not given with the values);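 active = significant combined selectivity score with lowered wild-type GFP, culture density cut under 30%, mutant RFP and density less affected; inactive = any of these conditions unmet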; note: one replicate is shown; some compounds called inactive have numbers as strong as hits
rRNA inh HTS OD600 – further read-out of rRNA inh HTS, marked with its call; OD600 change, %; measured here: OD600 growth;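 optical density of the mix in the first replicate; 0 = DMSO median and -100 = no signal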
rRNA inh HTS RFP – also measured in rRNA inh HTS; calls as there; RFP signal change, %; measured here: RFP humanized mutant strains;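 first replicate; 0 = DMSO median and -100 = no signal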
Numbers without * were called inactive; ? = inconclusive; . = no result given.

item	structure	Beta apoptosis	B2AR ag	T cruzi repl	ALR H2O2 inh	A1 inh
1	CC(OC(=O)Cc1c[nH]c2ccccc12)C(=O)Nc1ccccc1[N+](=O)[O-] (stereo not drawn)	-18	-5	-1	1	-0.6
2	CCOc1ccccc1OCCC(=O)OCC(=O)Nc1c(C)nn(-c2ccccc2)c1C	-4	-5	-14	5	-0.4
3	COc1cc(NC(=O)CSc2nnnn2Cc2ccccc2)cc(OC)c1	-2	2	1	.	0.5
4	Cc1ccc(S(=O)(=O)N2CCOCC2)cc1NC(=O)COC(=O)CNC(=O)c1ccc(C(C)(C)C)cc1	-12	-3	-8	1	1.5
5	O=S1(=O)CC(NCc2ccccc2)C(Nc2ccc(Cl)cc2)C1 (stereo not drawn)	6	-2	-3	42	-0.1
6	O=C(Nc1nc2ccccc2[nH]1)C1CC(=O)N(c2ccc3c(c2)OCCO3)C1 (stereo not drawn)	1	-11	-4	-1	0.5
7	COC(=O)C1CCN(C(=O)CN2C(=O)c3ccccc3S2(=O)=O)CC1	-4	-5	3	-2	-1.4
8	Cc1nc2ccc(C(=O)O)cc2c2c1CC(CN)O2 (stereo not drawn)	-3	-1	0	-4	-0.1
9	Cc1cc2nc(-c3ccc(=O)[nH]c3)n(Cc3ccccc3)c2cc1C	1	-14	1	30	-0.2
10	Cc1ccnc2nc(C(=O)N3CCN(c4ccc(F)cc4)CC3)nn12	-6	-2	.	21	0.2
11	Cc1ccc(N(C)S(=O)(=O)c2ccc(-c3cc(C)no3)s2)cc1	-2	-21	0	0	1.0
12	Cc1cc(C)cc(NS(=O)(=O)c2ccc(NC(=O)C3CCCCC3C(=O)O)cc2)c1 (stereo not drawn)	-2	9	-8	1	0.3
13	Cc1ccc(C)c(N2CCN(C(=O)CCS(=O)(=O)c3ccc4c(c3)oc(=O)n4C)CC2)c1	-11	-2	2	8	0.4
14	CCC(=O)NCCc1nc(-c2ccccc2)no1	-5	3	-28	6	0.3
15	Cc1ccc(S(=O)(=O)c2nc(C)c3c(n2)CCC3)cc1	-2	-3	4	-1	-0.3

item	Calb FLC	LANA-H2B inh	rRNA inh HTS	rRNA inh HTS OD600	rRNA inh HTS RFP
1	2	-7.6	-24	-20	-1.9
2	.	4.3	4	4	3.6
3	-4	-1.3	1	4	0.2
4	-4	1.8	2	-1	1.6
5	-1	7.1	.	.	.
6	3	-3.4	.	.	.
7	3	-3.4	15	16	-0.3
8	11	1.4	5	13	3.0
9	4	-1.0	-10	-23	-2.5
10	-5	0.4	.	.	.
11	22	-1.7	-15	-28	-9.5
12	-3	7.5	-26	-29	-1.8
13	12	1.4	-19*	-11*	2.2*
14	-2	3.6	10	6	-2.4
15	-2	-166	.	.	.

Entries of single compounds, looked up by structure. Values in the order: Beta apoptosis	B2AR ag	T cruzi repl	ALR H2O2 inh	A1 inh	Calb FLC	LANA-H2B inh	rRNA inh HTS	rRNA inh HTS OD600	rRNA inh HTS RFP
CCC(=O)NCCc1nc(-c2ccccc2)no1 in the list: -5	3	-28	6	0.3	-2	3.6	10	6	-2.4
Cc1ccc(C)c(N2CCN(C(=O)CCS(=O)(=O)c3ccc4c(c3)oc(=O)n4C)CC2)c1 in the list: -11	-2	2	8	0.4	12	1.4	-19*	-11*	2.2*

Additional records follow:
item	structure	Beta apoptosis	B2AR ag	T cruzi repl	ALR H2O2 inh	A1 inh
16	CSc1c(-c2ccccc2)nc2ccc(Cl)cc2c1C(=O)O	-3	10	-3	1	0.0
17	CN(C)c1ccc(C(=S)N2CCOCC2)cc1Br	6	0	-3	-5	1.0
18	COc1cc(/C=C2\CCn3c2nc2cc(C(=O)O)ccc2c3=O)ccc1OC(F)F	-5	12	-6	25	0.0
19	COCCOC(=O)c1c(N)n(CCCN2CCOCC2)c2nc3ccccc3nc12	.	1	-27	.	0.1
20	CCCCN(C(=O)CC1CCCC1)c1c(N)n(CC(C)C)c(=O)[nH]c1=O	-7	2	-11	1	0.9
21	O=C(c1ccc(-c2ccccc2Cl)o1)N1CCN(c2ccccc2O)CC1	.	17	0	-4	-1.0
22	C=CCC(=O)N1CCCC(CO)(Cc2ccc(F)cc2F)C1 (stereo not drawn)	-2	-7	6	-2	-0.1
23	CC(CCc1ccccc1)NC(=O)CCNS(=O)(=O)c1ccccc1 (stereo not drawn)	5	4	-4	-13	-0.1
24	CCOC(=O)N1CCN(S(=O)(=O)c2ccc(OC)c(OC)c2)CC1	-3	-3	-5	-11	-1.6
25	Cc1cc(C(=O)O)sc1C	-6	5	15	1	0.3
26	O=C(N/N=C/c1cc2ccccc2nc1Cl)[C@H]1C[C@@H]1c1ccccc1	11	-5	23	25	0.3
27	Cc1cc(NC(=O)CSc2nnc(-c3ccccc3F)n2C)no1	-9	1	.	-1	0.4
28	C/C(=N\NC(=O)C1CC1)c1cccs1	-4	-12	-10	-1	0.1
29	CCn1ccnc1CNC(=O)C1CCC(=O)N(Cc2cccc(C(F)(F)F)c2)C1 (stereo not drawn)	-1	-5	3	-6	-0.9
30	O=C1CC(c2ccccc2Cl)CC(O)=C1C=NCCCO (stereo not drawn)	-3	-2	-3	-8	0.1

item	Calb FLC	LANA-H2B inh	rRNA inh HTS	rRNA inh HTS OD600	rRNA inh HTS RFP
16	25	1.8	.	.	.
17	-5	1.2	.	.	.
18	.	-1.6	-15	-7	-1.0
19	-6	0.1	9	4	4.1
20	-16	-2.2	4	8	-2.2
21	0	1.9	-41	-73	1.0
22	6	-1.6	-3	-9	-0.2
23	0	2.1	12	7	4.9
24	4	3.1	.	.	.
25	5	5.1	.	.	.
26	-4	-5.1	.	.	.
27	.	-3.1	9	10	2.7
28	-7	1.0	.	.	.
29	-14	-3.7	2	-1	-1.3
30	18	0.6	6	-3	-1.0

item	structure	Beta apoptosis	B2AR ag	T cruzi repl	ALR H2O2 inh	A1 inh
31	COc1ccc2c(-c3ccccc3)cc(N3CCOCC3)nc2c1	0	14	32	-7	0.2
32	COc1ccc(CCN(Cc2cccs2)S(=O)(=O)c2ccc(-n3cnnn3)c(OC)c2)cc1OC	3	12	33	-20	0.3
33	Cc1ccc(Cl)cc1NC(=O)C1COc2ccccc2O1 (stereo not drawn)	-4	6	2	-8	1.0
34	C#CCOc1c(Cl)cc(/C=C2/C(=O)ON=C2C)cc1OC	-3	5	-4	33	-0.1
35	COc1ccc(OCC(=O)N/N=C/c2cccc3cccnc23)cc1	-6	1	6	-8	0.8
36	Cc1nc(-c2cccc(NC(=O)COc3ccc(Cl)cc3)c2)cs1	-6	-2	-5	-21	0.7
37	O=C(/C=C/c1cccc([N+](=O)[O-])c1)OCC(=O)c1ccccc1	-3	-8	-6	9	-2.6
38	O=C(NCc1ccc(-c2nc3ccccc3s2)cc1)c1ccc(Br)o1	2	-9	0	0	-1.2
39	Cn1cnc(S(=O)(=O)N2CCN(c3ccc(F)cc3)CC2)c1	0	-3	-14	59	0.4
40	Cc1snc2sc(C(=O)c3ccc(Br)cc3)c(N)c12	4	-12	19	-17	-0.7
41	COC(=O)c1c[nH]c(=O)c2ccccc12	0	4	2	3	1.5
42	COc1ccc(NC(=O)CN2CCN(CC(=O)Nc3ccccc3F)CC2)cc1OC	1	-7	5	-24	-0.3
43	CC(C)Sc1ccc([N+](=O)[O-])cc1C(=O)Nc1ccncc1	-1	-5	7	-20	1.5
44	COc1ccc(S(=O)(=O)N2CCN(C(=O)c3cccs3)CC2)cc1OC	-4	-2	3	6	0.2
45	COc1ccc(C2c3c(-c4ccccc4O)n[nH]c3C(=O)N2Cc2ccco2)cc1 (stereo not drawn)	-2	10	-2	.	0.6

item	Calb FLC	LANA-H2B inh	rRNA inh HTS	rRNA inh HTS OD600	rRNA inh HTS RFP
31	9	-2.0	.	.	.
32	-1	2.1	.	.	.
33	-58	1.1	15	13	-0.3
34	1	-2.9	1	4	-0.9
35	-10	5.5	-17	-4	-0.6
36	?	-7.2	-22	-41	-3.1
37	-5	-3.2	2	1	-4.9
38	-3	-3.0	.	.	.
39	-1	2.1	19	4	1.9
40	-9	2.0	.	.	.
41	-11	6.8	4	5	-4.1
42	-5	2.1	.	.	.
43	-5	1.9	-15	-7	-4.7
44	1	2.7	0	2	-6.1
45	19	2.6	-51	-76	-20

Ordered by value in ALR H2O2 inh (largest number first): six of the compounds above
nr | SMILES | ALR H2O2 inh
34 | C#CCOc1c(Cl)cc(/C=C2/C(=O)ON=C2C)cc1OC | 33
44 | COc1ccc(S(=O)(=O)N2CCN(C(=O)c3cccs3)CC2)cc1OC | 6
16 | CSc1c(-c2ccccc2)nc2ccc(Cl)cc2c1C(=O)O | 1
6 | O=C(Nc1nc2ccccc2[nH]1)C1CC(=O)N(c2ccc3c(c2)OCCO3)C1 (stereo not drawn) | -1
32 | COc1ccc(CCN(Cc2cccs2)S(=O)(=O)c2ccc(-n3cnnn3)c(OC)c2)cc1OC | -20
42 | COc1ccc(NC(=O)CN2CCN(CC(=O)Nc3ccccc3F)CC2)cc1OC | -24

(next part)
item	structure	Beta apoptosis	B2AR ag	T cruzi repl	ALR H2O2 inh	A1 inh
46	O=C(C1CCN(S(=O)(=O)c2ccccc2)CC1)N1CCN(c2ccccc2)CC1	-5	6	0	16	0.7
47	COc1ccc(C(C)C)cc1S(=O)(=O)N1CCC(C(=O)N2CCN(C)CC2)CC1	-8	8	6	1	0.6
48	O=c1c2nnn(Cc3ccccc3)c2ncn1C/C=C/c1ccccc1	1	3	5	-4	-0.2
49	CC(C)(C)c1ccc(OCCNC(=O)c2ncn[nH]2)cc1	-7	2	1	-2	?
50	C=CC[C@@H](CC(=O)N[C@@H](CO)Cc1ccccc1)C(=O)N[C@H](COC(=O)[C@H](CC=C)CC(=O)OC(C)(C)C)Cc1c[nH]c2ccccc12	3	-2	.	2	0.2
51	CC(NC(=O)c1cccs1)c1nnc(SCc2ccc(Cl)cc2Cl)n1C (stereo not drawn)	.	-7	-8	-9	0.2
52	NS(=O)(=O)c1ccc2nc(NC(=O)Nc3ccc(F)cc3)sc2c1	-2	9	-6	-11	0.2
53	Cc1c(-c2nc3ccccc3[nH]2)cnn1C	-2	-7	.	.	-1.7
54	COc1ccc(C(=O)c2ccc3oc(-c4ccc(OC)cc4)c(C#CCCO)c3c2)cc1	4	5	39	2	0.5
55	CCCCn1c(=O)[nH]c(=O)c2c1nc(-c1ccc(CC)c([N+](=O)[O-])c1)n2C	-1	.	17	-3	-0.1

item	Calb FLC	LANA-H2B inh	rRNA inh HTS	rRNA inh HTS OD600	rRNA inh HTS RFP
46	0	-5.3	-1	1	0.7
47	.	3.1	8	13	-1.2
48	-1	-5.0	0	6	1.5
49	-15	2.7	.	.	.
50	.	-1.0	6	4	1.5
51	-26	-1.8	2	-1	-5.1
52	2	-10.0	-19	-20	-2.0
53	.	-3.2	2	5	-0.5
54	-4	4.2	4	-3	0.1
55	2	2.3	.	.	.

The list is partial; the hit share may differ from the screen's.
